High-throughput results (PubChem)
FPRL1 binder = human FPRL1 ligands by binding competition, primary screen, cell-based, FPR counter-screen, flow cytometry; FPRL1-expressing cells, fluorescent ligand binding inhibition; inhibition, %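 (tested at 6.7 µM)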; actives 0.3% (n = 24,000); AID 441, 2006;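 note: 0% = buffer alone and 100% = receptor blocker peptide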
Target sequence (P25090 whole entry, looked up): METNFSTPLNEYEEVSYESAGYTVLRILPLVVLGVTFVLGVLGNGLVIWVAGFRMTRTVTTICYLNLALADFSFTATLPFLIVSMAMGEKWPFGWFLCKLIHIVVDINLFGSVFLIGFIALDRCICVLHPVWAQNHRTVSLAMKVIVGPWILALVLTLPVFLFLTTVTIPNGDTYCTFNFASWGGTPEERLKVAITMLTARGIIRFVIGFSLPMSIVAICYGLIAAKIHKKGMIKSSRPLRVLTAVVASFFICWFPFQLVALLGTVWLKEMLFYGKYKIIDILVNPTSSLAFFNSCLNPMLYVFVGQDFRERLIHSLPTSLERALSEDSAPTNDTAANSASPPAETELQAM
VCAM-1 down imaging = inhibitors of TNFa-induced VCAM-1 surface display, imaging, high-content imaging, pooled HUVEC, TNFa stimulus (AID 456). HUVEC TNFa-induced VCAM-1 surface expression, immunofluorescence imaging; numbers were filed only for top-ranked candidate wells. inhibition, % at 5 µM; hits with a dose series show IC50 in µM. actives 0.2% (n = 10,000);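 active = top tenth filtered wells with inhibition above zero that passed visual or statistical confirmation; inactive = the rest, including hits rejected on review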;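 note: 0% = stimulated vehicle wells and 100% = unstimulated cells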
VCAM-1 inhibition = inhibitors of TNFa-induced VCAM-1 surface display, cell-based, plate reader, pooled HUVEC, TNFa stimulus (AID 454). HUVEC TNFa-induced VCAM-1 surface immunofluorescence, plate reader; numbers were filed only for top-ranked candidate wells. inhibition, % at 5 µM. actives 0.2% (n = 10,000);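 active = compound among top-ranked inhibitors of TNF-induced VCAM-1 adhesion protein staining, with the hit upheld by image or statistical review; inactive = the rest, including hits rejected on review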;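 note: 0% = TNFa with vehicle and 100% = cells without TNFa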
FPR ligand = human FPR ligands by binding competition, primary screen, cell-based, FPRL1 counter-screen, flow cytometry. fMet-Leu-Phe receptor (Homo sapiens), P21462. FPR-expressing cells, fluorescent ligand binding. inhibition, %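 (tested at 6.7 µM)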. actives 0.74% (n = 24,000);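 note: 0% = buffer wells and 100% = receptor blocker peptide wells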
Target sequence (P21462 whole entry, looked up): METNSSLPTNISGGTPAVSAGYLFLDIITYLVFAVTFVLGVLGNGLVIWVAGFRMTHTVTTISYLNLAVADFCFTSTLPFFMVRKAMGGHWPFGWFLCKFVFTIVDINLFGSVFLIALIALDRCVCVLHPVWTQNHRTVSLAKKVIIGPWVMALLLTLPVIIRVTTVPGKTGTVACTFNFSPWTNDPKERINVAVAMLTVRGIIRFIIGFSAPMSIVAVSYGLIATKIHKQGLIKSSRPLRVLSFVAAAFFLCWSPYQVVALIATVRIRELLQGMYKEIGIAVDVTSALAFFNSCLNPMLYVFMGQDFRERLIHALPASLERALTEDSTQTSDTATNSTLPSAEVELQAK
VCAM-1 augmentation = enhancers of VCAM-1 display on endothelial cells, imaging, high-content imaging, pooled HUVEC, TNFa stimulus (AID 457); actives 0.2% (n = 10,000); calls only; Pooled HUVEC, TNFa-induced VCAM-1 immunofluorescence imaging; hits of this screen are not shown here;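 active = a top-ranked rise in VCAM-1 staining upheld on image or statistical review; inactive = the rest, including candidates rejected on review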;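 note: compounds tested at 5 µM in the well; cells exposed to compound for 24 hours before fixing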
Starred values were filed as active, the others as inactive; i = inactive; nt = not tested or not shown; & = joins results of further samples.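 Rule for the calls, unless noted: active = mean above 30%; inconclusive = self-fluorescent; inactive = the rest.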

item	SMILES	FPRL1 binder	VCAM-1 down imaging	VCAM-1 inhibition
1	CCN(CC)CCN1C(=O)C(=O)/C(=C(/O)c2ccc(OC)cc2)C1c1ccco1 (stereo unspecified)	9	nt	nt
2	CCOc1ccc(OCC)c(NC(=O)CN(C)S(=O)(=O)c2cccc3nsnc23)c1	-5	nt	nt
3	O=C(O)CC1=C(O)C(=O)N(c2ccccc2)C1c1ccccc1 (stereo unspecified)	-5	i	i
4	COc1cccc(C2C(C(=O)c3cc4ccccc4o3)=C(O)C(=O)N2c2cc(C)on2)c1OC (stereo unspecified)	2	nt	nt
5	CC(C)CC(NS(=O)(=O)c1ccc2c(c1)oc(=O)n2C)C(=O)NCc1cccnc1 (stereo unspecified)	-5	nt	nt
6	CCOC(=O)c1cccc(NC(=O)Cn2cnc3c2c(=O)n(C)c(=O)n3C)c1	10	i	i
7	c1cncc(-c2nnc(-c3ccco3)o2)c1	-5	i	i
8	CCOC(=O)N1CCN(c2c(Nc3cc(C)[nH]n3)c(=O)c2=O)CC1	1	nt	nt

item	FPR ligand	VCAM-1 augmentation
1	-5	nt
2	-1	nt
3	2	i
4	54*	nt
5	1	nt
6	0	i
7	-15	i
8	-3	nt

Remaining list, next part.
item	SMILES	FPRL1 binder	VCAM-1 down imaging	VCAM-1 inhibition
9	O=C(c1noc2c1CCCC2)N1CCN(c2ccccc2)CC1	0	nt	nt
10	O=C(COc1ccccc1)N1CCN(c2ncnc3c2cnn3-c2ccccc2)CC1	4	i	i
11	c1ccc2c(Cn3ccnc3)c[nH]c2c1	5	i	i
12	COc1ccc(OCc2nnc3n2N=C(c2ccc(C)cc2)CS3)cc1	2	nt	nt
13	COC(=O)c1sc(N)c(C(=O)OC)c1COC(=O)C1CC(=O)N(Cc2ccco2)C1 (stereo unspecified)	-2	i	i
14	COc1ccc(C(C(C(=O)c2ccco2)N2CCOCC2)N2CCOCC2)cc1 (stereo unspecified)	6	i	i
15	Cc1cc(C)n(-c2nnc(C)n2N)n1	1	nt	nt
16	Cc1nc(=S)n(-c2ccccc2)[nH]1	0	i	i

item	FPR ligand	VCAM-1 augmentation
9	-2	nt
10	9	i
11	-5	i
12	12	nt
13	24	i
14	0	i
15	2	nt
16	-6	i

Next section.
item	SMILES	FPRL1 binder	VCAM-1 down imaging	VCAM-1 inhibition
17	COc1cccc(C2CC(c3ccc(Cl)cc3Cl)n3nc(N)nc3N2)c1 (stereo unspecified)	3	nt	nt
18	CCOc1ccc(NC(=O)CN2CCN(CC(=O)Nc3cccc(F)c3)CC2)cc1	-4	nt	nt
19	O=C(Cn1nnc(-c2ccncc2)n1)Nc1ccc2c(c1)CCC2	-2	i	i
20	COc1ccc(-c2noc(CCC(=O)Nc3ccc4c(c3)OCCO4)n2)cc1	11	nt	nt
21	CCOC(=O)N1CCC(NC(=O)c2cc3c(-c4ccccc4F)nn(C)c3s2)CC1	-3	nt	nt
22	Cc1nc2sc(C(c3cccc(F)c3)N3CCN(C(=O)c4ccco4)CC3)c(O)n2n1 (stereo unspecified)	-3	i	i
23	CC(=O)c1cc(C)ccc1OC(=O)c1cccc2nc(C)oc12	3	nt	nt
24	COc1ccc(C(=O)NCc2n[nH]c(=S)n2-c2ccccc2)cc1OC	-3	nt	nt

item	FPR ligand	VCAM-1 augmentation
17	3	nt
18	-5	nt
19	-2	i
20	2	nt
21	5	nt
22	-2	i
23	-1	nt
24	-1	nt

Overlap with the part before: 6 compounds, followed by the next part.
item	SMILES	FPRL1 binder	VCAM-1 down imaging	VCAM-1 inhibition
19	O=C(Cn1nnc(-c2ccncc2)n1)Nc1ccc2c(c1)CCC2	-2	i	i
20	COc1ccc(-c2noc(CCC(=O)Nc3ccc4c(c3)OCCO4)n2)cc1	11	nt	nt
21	CCOC(=O)N1CCC(NC(=O)c2cc3c(-c4ccccc4F)nn(C)c3s2)CC1	-3	nt	nt
22	Cc1nc2sc(C(c3cccc(F)c3)N3CCN(C(=O)c4ccco4)CC3)c(O)n2n1 (stereo unspecified)	-3	i	i
23	CC(=O)c1cc(C)ccc1OC(=O)c1cccc2nc(C)oc12	3	nt	nt
24	COc1ccc(C(=O)NCc2n[nH]c(=S)n2-c2ccccc2)cc1OC	-3	nt	nt
25	COCCCNC(=O)C1CCCCN1S(=O)(=O)c1ccc(F)cc1 (stereo unspecified)	2	nt	nt
26	COc1ccc(-c2c(C)nn3c(N4CCC(C(=O)NCCN(C)C)CC4)cc(C)nc23)cc1OC	-6	nt	nt
27	COc1ccc2[nH]c(C)c(CCN3C(=O)C4CC=CCC4C3=O)c2c1 (stereo unspecified)	-2	nt	nt
28	COc1cccc(-c2cc3nc4c(c(N5CCC6(CC5)OCCO6)n3n2)CCCC4)c1	-3	i	i
29	CCC(C(=O)OC)n1cnc2c(cnn2-c2ccc(Cl)cc2)c1=O (stereo unspecified)	-4	nt	nt
30	CC(=O)Nc1ccc(S(=O)(=O)c2ccc(N)cc2)cc1	-4	nt	nt
31	COc1cc(OC)c(OC)cc1CN(C)CCc1ccccn1	0	i	i
32	CC(C)(C)NC(=O)Cn1nnc(-c2cccs2)n1	4	i	i

item	FPR ligand	VCAM-1 augmentation
19	-2	i
20	2	nt
21	5	nt
22	-2	i
23	-1	nt
24	-1	nt
25	4	nt
26	5	nt
27	-1	nt
28	-8	i
29	-6	nt
30	-7	nt
31	6	i
32	5	i

Other structures
item	SMILES	FPRL1 binder	VCAM-1 down imaging	VCAM-1 inhibition
33	O=C(O)CCCCCCC1C(=O)NC(=O)N1CCC(O)C1CCCCC1 (stereo unspecified)	-2	i	i
34	CC(=O)N1CN(C2CCS(=O)(=O)C2)Cc2c1sc1c2CCCC1 (stereo unspecified)	2	nt	nt
35	CNC(=O)CSc1nnc(-c2cccc(S(=O)(=O)N3CCOCC3)c2)n1-c1ccc(F)cc1	8	i	i
36	COC(=O)c1cc2oc3ccccc3c2n1CC(=O)Nc1ccccc1OC	-12	nt	nt
37	Cc1cc(O)c(C(C)C)cc1NC(=O)Cn1nc(C)c2ccccc2c1=O	-4	nt	nt
38	CCN(CC)CCNC(=O)c1ccc(N)cc1	5	i	i
39	COc1ccc(S(=O)(=O)CCC(=O)NCCc2ccc(S(N)(=O)=O)cc2)cc1	-4	nt	nt
40	Cn1c2c(c(=O)n(C)c1=O)C(c1cc3c(cc1Br)OCO3)CC(=O)N2 (stereo unspecified)	-2	nt	nt

item	FPR ligand	VCAM-1 augmentation
33	4	i
34	-1	nt
35	6	i
36	-2	nt
37	0	nt
38	-10	i
39	-3	nt
40	-6	nt

(next part)
item	SMILES	FPRL1 binder	VCAM-1 down imaging	VCAM-1 inhibition
41	CCCC(C(=O)O)N1C(=O)/C(=C2\C(=O)N(C)c3ccccc32)SC1=S (stereo unspecified)	-4	nt	nt
42	O=C(O)c1ccc2c(c1)C(=O)N(CCC1=CCCCC1)C2=O	0	nt	nt
43	O=C(COc1ccc(Cl)cc1)NCc1nnc(SCC(=O)Nc2ccc3c(c2)OCCO3)o1	1	i	i
44	Cc1ccccc1Nc1nn2c(=O)c3ccccc3nc2s1	2	nt	nt
45	CCc1ccc(NC(=O)c2ccc3c(c2)C(=O)N(Cc2ccco2)C3=O)cc1	-12	nt	nt
46	CCOC(=O)c1c(NC(=O)C(F)(OC)C(F)(F)F)sc2c1CCN(C)C2 (stereo unspecified)	-14	nt	nt
47	CN(C)C(=O)Oc1cccc([N+](C)(C)C)c1	-2&3	i	i
48	Cc1c(C(=O)NCCc2ccccc2)oc2ccc(S(=O)(=O)N3CCC4(CC3)OCCO4)cc12	0	nt	nt

item	FPR ligand	VCAM-1 augmentation
41	5	nt
42	4	nt
43	1	i
44	6	nt
45	-3	nt
46	-8	nt
47	-3&1	i
48	4	nt

(cont.)
item	SMILES	FPRL1 binder	VCAM-1 down imaging	VCAM-1 inhibition
49	O=C(c1ccc(=O)[nH]c1)N(Cc1ccco1)C1(C(=O)NC2CCCCC2)CCCCC1	7	nt	nt
50	C=C(C)c1cccc(C(C)(C)NC(=O)NCC2CCCO2)c1 (stereo unspecified)	-4	i	i
51	COC(=O)c1sccc1NC(=O)c1csc(C)c1	-6	i	i
52	CCOC(=O)c1ccc(NC(=O)Cn2nnc(-c3ccccc3C)n2)cc1	2	nt	nt
53	Cc1ccc(C(=O)Nc2nc3c(s2)CCCC3)o1	4	i	i
54	Cc1c(C(=O)N2CCOCC2)[nH]c2c1C(=O)CC(c1ccc(Cl)cc1)C2 (stereo unspecified)	4	nt	nt
55	COc1cccc(-c2cc(C(F)(F)F)nc(NCc3ccco3)n2)c1	-6	i	i
56	C=CCOc1ccc(CN(C)CC(=O)N(CC(C)C)c2c(N)n(CC(C)C)c(=O)[nH]c2=O)cc1	1	i	i

item	FPR ligand	VCAM-1 augmentation
49	6	nt
50	3	i
51	-1	i
52	3	nt
53	-7	i
54	2	nt
55	-4	i
56	2	i

Next part.
item	SMILES	FPRL1 binder	VCAM-1 down imaging	VCAM-1 inhibition
57	CCc1ccc(OCC(=O)NCCN(C)C)c(Br)c1	0	nt	nt
58	O=C(Nc1ccc2nc3n(c(=O)c2c1)CCCCC3)c1ccccn1	-5	nt	nt
59	COCCCNC(=O)C(Cc1ccccc1)NS(=O)(=O)c1ccc2c(c1)c(=O)n(C)c(=O)n2C (stereo unspecified)	2	i	i
60	CC(C)=CCCC(C)CN(C)CCc1ccccn1 (stereo unspecified)	0	i	i
61	[O-][n+]1c2ccc3nonc3c2nn1-c1ccccc1Cl	1	i	i
62	O=C(CSc1nc(-c2ccc(F)cc2)cs1)N1CCOCC1	-6	i	i
63	NC(=O)c1cc(-c2ccccc2)nc(Oc2ccccc2)n1	4	i	i
64	O=C(CCS(=O)(=O)c1cc(Br)cc2c1N(C(=O)C1CC1)CC2)NCC1CCCO1 (stereo unspecified)	3	i	i

item	FPR ligand	VCAM-1 augmentation
57	-8	nt
58	-2	nt
59	-2	i
60	-7	i
61	-5	i
62	29	i
63	-5	i
64	-6	i

The listing continues.
item	SMILES	FPRL1 binder	VCAM-1 down imaging	VCAM-1 inhibition
65	O=C(c1ccc(CNS(=O)(=O)c2cccc(C(F)(F)F)c2)cc1)N1CCOCC1	-1	i	i
66	COc1ccc(N2CCN(C(CNC(=O)c3cccc(Cl)c3)c3cccnc3)CC2)cc1 (stereo unspecified)	4	nt	nt
67	CCCCC(CC)CNC(=O)CN(C)S(=O)(=O)c1cccc2nsnc12 (stereo unspecified)	-8	nt	nt
68	COc1ccc(OC)c(NC(=O)[C@H]2CC=CC[C@H]2C(=O)O)c1	3	nt	nt
69	Cc1cc(C)n2nc(CC(=O)NC3CCCCCCC3)nc2n1	9	nt	nt
70	CCN(CC)C(=O)Cn1c(=O)n(Cc2ccccc2Cl)c2c1c(=O)n(C)c(=O)n2C	3	i	i
71	Cc1cc(Nc2ccccc2)n(-c2ccccc2)n1	-4	i	i
72	NC(=O)c1ccccc1NC(=O)CCCN1C(=O)CCC1=O	-3	i	i

item	FPR ligand	VCAM-1 augmentation
65	1	i
66	-2	nt
67	8	nt
68	3	nt
69	-3	nt
70	-1	i
71	13	i
72	-7	i

Next entries
item	SMILES	FPRL1 binder	VCAM-1 down imaging	VCAM-1 inhibition
73	CCCCn1c(CN2CCN(c3cccc(Cl)c3)CC2)nc2c1c(=O)n(C)c(=O)n2C	4	i	i
74	Cc1cc(NC(=O)C2CCN(S(=O)(=O)c3cnc[nH]3)CC2)ccc1Br	-5	nt	nt
75	CC(C)OC(=O)c1cccnc1SCc1cc(=O)n2ccccc2n1	3	nt	nt
76	NC(=O)c1nsnc1-c1ccccc1O	1	i	i
77	CC(=O)N1CCN(c2ccc(NCc3ccc(F)cc3)cc2)CC1	0	nt	nt
78	COc1ccc(-n2c(Cc3cccn3C)nnc2SCC(=O)N2CCOCC2)cc1	2	nt	nt
79	CC1Cc2ccccc2N1C(=O)CSCC(=O)O (stereo unspecified)	1	nt	nt
80	O=C(O)CCCC(=O)NCCc1ccncc1	3	i	i

item	FPR ligand	VCAM-1 augmentation
73	5	i
74	-8	nt
75	2	nt
76	-2	i
77	3	nt
78	0	nt
79	-2	nt
80	-3	i

This is a subset; the hit share may differ from the screen's.
